# Screening data deposited in PubChem by several laboratories.
# PrP UTR inh: inhibition of PrP 5' UTR reporter expression; cell-based PrP 5' UTR mRNA reporter, plate reader; inhibition, % (test concentration not listed); actives 0.35% (n = 340,000);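 active means every replicate at 50% or more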;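 further: 0 = median of the neutral control wells; tested in H4 reporter cells; numbers are from one replicate; inactives centre near -14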
# Bead autofluor: counter-screen for toxin protease inhibitors: compound fluorescence. compound autofluorescence counterscreen, microsphere flow cytometry; stronger effect = higher value. fluorescence intensity (test concentration not listed). actives 3.1% (n = 360,000). AID 624483;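 active means at least 3 SD above the mean of all compounds, about 16000 in these data; inconclusive means too few beads counted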;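 further: 100 nL of 1 mM stock went into each well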
# BJeLR lethal: MLPCN primary cell-based screen for lethality selective to Ras in HRASV12 cells; BJeLR (HRASV12) viability, CellTiter-Glo ATP luminescence, 48 h; reference of the scale not given here; inhibition, % (concentration not given with the values); actives 0.17% (n = 300,000);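 active means replicate mean above 50%; inconclusive means above 50% but judged a plate artefact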;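 further: 50 nL library stock added to about 25 µL; numbers are from one replicate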
# Sa ugtP lethal: growth inhibition of ugtP-null S. aureus, primary screen, RN4220 ugtP deletion, OD600. 16 h; some inactives read as strong as hits. growth inhibition, % (test concentration not listed). actives 0.54% (n = 330,000). AID 1259309, 2017;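 active means z-score under -3 and OD600 up to 0.15 on both plates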;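 further: plate controls were untreated wells for no effect and antibiotic for full effect; wells of about 80 µL received 100 nL stock; the first replicate is given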
# Mtb hypoxia rep: PubChem AID 1159583; M. tuberculosis hypoxia-regulated fluorescent reporter, fluorescence; actives 0.1% (n = 300,000); fluorescence inhibition, % (concentration not given with the values);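 active means 35 to 45% if threefold the growth effect, above 45% if 1.5-fold the growth effect; inactive means the rest, general growth blockers included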;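 further: wells of about 50 µL received 100 nL stock; 0% = vehicle wells and 100% = reference inhibitor wells; whole bacteria with a GFP reporter of the hypoxia response; strong numbers were not always called active; many hits fall short of the cut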
# RN4220 kill: growth inhibition of S. aureus RN4220, primary screen, OD600; 16 h; inhibition, % (concentration not given with the values); actives 0.33% (n = 330,000); AID 1259311, 2017;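 active means z-score of -3 or lower and OD600 up to 0.18 on both plates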;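 further: plate controls were untreated cells for no effect and reference antibiotic for full effect; stock transfer was 100 nL into about 80 µL; one replicate is shown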
# Mtb hypoxia rep growth: second read-out of Mtb hypoxia rep, no call of its own (marks repeat the call); growth inhibition, %; measured here: M. tuberculosis growth (absorbance);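 0% = vehicle and 100% = reference antibiotic; read after six days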
# Numbers without * were called inactive; ? = inconclusive; / = not tested or not shown.
SMILES,PrP UTR inh,Bead autofluor,BJeLR lethal,Sa ugtP lethal,Mtb hypoxia rep,Mtb hypoxia rep growth,RN4220 kill
COc1ccc(C(=S)N2CCCC2)cc1Br,-16,3936,-10,3,15,5,2.3
CCOc1ccc(C(=O)CCC(=O)N(CC)CC(=O)NCc2ccc(Cl)cc2)cc1,-17,7590,4,12,-3,-8,6.6
N#Cc1c(Cl)cccc1-n1ccnc1,15,15893,-6,5,6,-1,1.7
Cc1noc(C)c1C(=O)NC1=NCCS1,-11,4334,4,11,5,-12,3.4
N/C(=N\OC(=O)CCCOc1ccccc1)c1ccccc1,-10,2460,-7,9,14,9,6.8
CS(=O)(=O)C1=C(O)C(=O)N(CCCC(=O)O)C1c1ccccc1F (stereo unspecified),-4,15293,1,5,4,0,4.4
COc1cc(C2NC(=O)C(C#N)=C(Nc3cccc(C)c3)S2)ccc1O (stereo unspecified),-22,5964,-1,11,2,-4,0.6
c1ccc(Cc2nnc(N3CCOCC3)c3ccccc23)cc1,-10,2992,4,-3,14,14,-10
CC(=O)Nc1nnc(SCC(=O)Nc2ccc3c(c2)OCCO3)s1,-23,4997,0,1,13,8,-4.3
Cc1ccc(/C=C/C(=O)OCC(=O)Nc2cccc(S(=O)(=O)N(C)C)c2)o1,-24,2509,-12,4,12,0,5.9
CC(=O)c1ccc(C(=O)N2CCCC(CO)(Cc3ccccc3C)C2)s1 (stereo unspecified),2,5620,-5,14,-4,-8,6.9
CCn1c(/C=C/c2ccccc2F)nc2ccccc2c1=O,-16,3341,-3,-5,13,9,14
CCCCNC(=O)O[C@H]1C[C@@H]2CCN3C(=O)CCC[C@H]([C@H]1Cc1ccccc1)[C@H]23,-15,4173,5,/,/,/,/
CCCCN(CC)c1nc(N)c2c(N)nc(OCC)cc2c1C#N,-15,9128,-1,-12,3,6,1.3
S=C(NCc1ccco1)Nc1ccc(N2CCOCC2)cc1,-26,2368,-24,14,16,17,0.5
c1cc2cn[nH]c2cc1NC1CCCCCC1,-20,12604,0,0,8,8,5.6
O=C(O)CC1(CC(=O)Nc2cc(F)ccc2Cl)CCCCC1,-20,4538,4,1,5,4,4.9
CC=CC=NNc1nc(C)cc(=O)[nH]1,/,/,/,-2,0,11,9.0
CC1(C)CC(=O)C(C(c2ccc(F)cc2)C2C(=O)CC(C)(C)CC2=O)C(=O)C1,-4,2431,9,5,15,9,3.9
CC(NC(=O)CN(C)CC(=O)Nc1ccc(Cl)cc1)c1ccc(F)cc1 (stereo unspecified),-1,2951,/,6,26,10,3.8
CCCNC(=O)c1nnsc1S(=O)(=O)c1ccc(Cl)cc1,10,3452,/,0,8,6,2.1
COc1ccc(S(=O)(=O)N2CCN(C(=O)c3ccco3)CC2)cc1C(C)(C)C,5,3521,-6,2,-1,5,3.9
Cc1ccc(NC(=O)COC(=O)C(NS(=O)(=O)c2ccc(Cl)cc2)C(C)O)cc1C (stereo unspecified),-5,2166,-16,-1,4,7,7.1
CC(C)N(C(=O)COC(=O)c1cccc(C(=O)OCC(=O)N(C(C)C)C(C)C)n1)C(C)C,-10,4161,0,0,1,-1,0.9
CC(C)(C)NC(=O)NC(=O)COC(=O)c1ccc(OC(F)(F)F)cc1,-11,2309,-16,7,8,3,3.2
COc1ccc(OC)c(NC(=O)c2[nH]c(C)c(C(C)=O)c2C)c1,-14,8400,0,6,8,3,2.9
CCCc1noc2c1/C(=N\O)CC(CC(C)SCC)C2 (stereo unspecified),-40,11528,1,/,/,/,/
O=C(NCCN1CCOCC1)C1CCC(=O)N1Cc1ccccc1Cl (stereo unspecified),-17,3085,1,1,14,7,-7.6
Cc1ccc(S(=O)(=O)N2CCOCC2)cc1C(=O)NCCN1C(=O)S/C(=C\c2ccccc2Cl)C1=O,-9,2696,0,2,-5,3,4.2
CCOC(=O)C1=C(N)Oc2cc(C)[nH]c(=O)c2C1c1ccncc1 (stereo unspecified),-16,3516,-7,0,-2,-6,6.3
COc1ccc(S(=O)(=O)N(C)C(C)CCc2ccco2)cc1 (stereo unspecified),-32,4001,-3,0,-3,2,4.7
N/C(=N\OC(=O)c1ccc(Br)cc1)c1ccccc1,-183,25293*,-7,-2,7,4,4.1
CCC(=O)Nc1ccc(Cl)c(NC(=S)NC(=O)COc2ccccc2)c1,-12,2583,3,-3,15,13,0.1
CC1CN(S(=O)(=O)c2ccccc2)CC(C)O1 (stereo unspecified),-28,23507*,8,-4,3,6,-1.8
CCOc1ccc(N=C(/C(C(=O)C(=O)N2CCOCC2)=C(/O)c2ccccc2)c2ccccc2)cc1,-34,5499,-1,4,2,16,2.5
Cc1cccc(N2CCN(C(=O)C3CCC(=O)N(C4CC4)C3)CC2)c1C (stereo unspecified),-8,5834,1,11,3,-8,5.7
Cc1ccc(C)c(-n2c(Cc3cc(=O)[nH]c(=O)[nH]3)nnc2SCC(=O)NCc2ccco2)c1,-21,4137,/,9,5,11,3.6
Cn1cnc([N+](=O)[O-])c1Cl,-18,/,-3,17,18,-6,4.0
CC1(C)Nc2ccccc2C(=O)N1c1ccc(Br)cc1,-70,5822,-2,9,-9,11,6.3
O=C(C1=NN(c2ccccc2)C2C(=O)N(c3cccc(Cl)c3)C(=O)C12)c1ccccc1 (stereo unspecified),-13,8195,/,-3,5,0,11
Cc1ccccc1CSc1nnc(-c2ccco2)n1Cc1ccco1,-24,9715,-2,-6,9,7,11
Cc1ccc(S(=O)(=O)NCCCC(=O)O)cc1,-14,4734,-6,17,-8,-5,9.0
Cc1ccc(/C=C(\C#N)C(=O)NC(C)c2ccccc2)o1 (stereo unspecified),-29,5723,1,4,10,7,-0.5
COc1cc(NS(=O)(=O)c2ccc(NC(C)=O)cc2)ncn1,1,8013,4,11,7,2,0.5
O=C(O)c1cccn2c(=O)c3ccccc3nc12,-11,3797,-4,6,13,8,3.0

# An excerpt of these results, as labelled records.
> Cc1ccc(C)c(-n2c(Cc3cc(=O)[nH]c(=O)[nH]3)nnc2SCC(=O)NCc2ccco2)c1
  PrP UTR inh = -21; Bead autofluor = 4137; BJeLR lethal = /; Sa ugtP lethal = 9; Mtb hypoxia rep = 5; Mtb hypoxia rep growth = 11; RN4220 kill = 3.6
> Cn1cnc([N+](=O)[O-])c1Cl
  PrP UTR inh = -18; Bead autofluor = /; BJeLR lethal = -3; Sa ugtP lethal = 17; Mtb hypoxia rep = 18; Mtb hypoxia rep growth = -6; RN4220 kill = 4.0
> CC1(C)Nc2ccccc2C(=O)N1c1ccc(Br)cc1
  PrP UTR inh = -70; Bead autofluor = 5822; BJeLR lethal = -2; Sa ugtP lethal = 9; Mtb hypoxia rep = -9; Mtb hypoxia rep growth = 11; RN4220 kill = 6.3
> O=C(C1=NN(c2ccccc2)C2C(=O)N(c3cccc(Cl)c3)C(=O)C12)c1ccccc1 (stereo unspecified)
  PrP UTR inh = -13; Bead autofluor = 8195; BJeLR lethal = /; Sa ugtP lethal = -3; Mtb hypoxia rep = 5; Mtb hypoxia rep growth = 0; RN4220 kill = 11

# As entered above:
# Under RN4220 kill, `CC(C)N(C(=O)COC(=O)c1cccc(C(=O)OCC(=O)N(C(C)C)C(C)C)n1)C(C)C` is listed with 0.9
# Under Bead autofluor, `Cc1ccc(/C=C(\C#N)C(=O)NC(C)c2ccccc2)o1` (stereo unspecified) is listed with 5723
# Under PrP UTR inh, `Cc1noc(C)c1C(=O)NC1=NCCS1` is listed with -11
# Under BJeLR lethal, `COc1ccc(OC)c(NC(=O)c2[nH]c(C)c(C(C)=O)c2C)c1` is listed with 0
# Under Mtb hypoxia rep growth, `Cc1ccc(S(=O)(=O)N2CCOCC2)cc1C(=O)NCCN1C(=O)S/C(=C\c2ccccc2Cl)C1=O` is listed with 3

# The results go on:
SMILES,PrP UTR inh,Bead autofluor,BJeLR lethal,Sa ugtP lethal,Mtb hypoxia rep,Mtb hypoxia rep growth,RN4220 kill
C#CC[N+](C)(C)CC#Cc1ccc(C)cc1,-32,3945,-8,6,-7,0,3.1
CCN(CC)C(=O)Cn1cc(S(=O)(=O)CC(=O)NC2CCCCC2)c2ccccc21,12,4452,4,-4,-2,-9,0.7
Cc1cc(C)c(OCC(=O)Nc2cccc(NC(=O)c3ccco3)c2)c(Br)c1,-19,13203,12,-6,24,12,32
NC(=NOC(=O)Cc1ccc(Cl)cc1)c1ccccn1,/,/,/,-10,8,7,1.2
O=C(Cc1c(F)cccc1Cl)NCCN1CCOCC1,-19,4187,2,8,4,6,7.7
Cc1ccccc1-c1nnc(SCC(=O)Nc2ccc(Cl)cc2)n1N,-15,15729,10,7,9,6,8.4
Nc1cc(Cl)nc(N/N=C/c2ccccc2[N+](=O)[O-])n1,-64,3007,-4,/,/,/,/
CC(=O)c1ccc(-c2ccc(C(=O)Nc3nc(-c4ccccn4)cs3)o2)cc1,13,/,/,-9,3,9,14
COc1cc(NC2c3ccccc3C(=O)N2Cc2ccccc2Cl)cc(OC)c1 (stereo unspecified),-6,3904,-1,-7,1,-2,5.7
Cc1ccccc1C(=O)/C(C#N)=N/Nc1c(C)n(C)n(-c2ccccc2)c1=O,2,2052,27,2,3,-3,30
CCOC(=O)c1sc(NC(=O)CSc2n[nH]c(-c3ccncc3)n2)c(C#N)c1C,4,/,5,3,10,-1,5.5
O=C(COC(=O)c1ccc[nH]c1=O)Nc1ccc(N2CCCCC2)cc1,62*,?,/,2,8,6,0.8
COc1ccc(-c2noc(CCC(=O)NCc3cccnc3)n2)cc1,-25,23172*,-1,9,-3,0,3.9
COc1ccc2c(c1OC)C(=O)OC2CC(=O)O (stereo unspecified),-20,3777,4,8,1,2,3.6
Cc1cc(C)c(S(=O)(=O)c2ccc(Cl)cc2C)c(Cl)n1,-17,2428,0,-3,-9,-1,-1.6

# Entries above containing a COOH group (five):
SMILES,PrP UTR inh,Bead autofluor,BJeLR lethal,Sa ugtP lethal,Mtb hypoxia rep,Mtb hypoxia rep growth,RN4220 kill
CS(=O)(=O)C1=C(O)C(=O)N(CCCC(=O)O)C1c1ccccc1F (stereo unspecified),-4,15293,1,5,4,0,4.4
O=C(O)CC1(CC(=O)Nc2cc(F)ccc2Cl)CCCCC1,-20,4538,4,1,5,4,4.9
Cc1ccc(S(=O)(=O)NCCCC(=O)O)cc1,-14,4734,-6,17,-8,-5,9.0
O=C(O)c1cccn2c(=O)c3ccccc3nc12,-11,3797,-4,6,13,8,3.0
COc1ccc2c(c1OC)C(=O)OC2CC(=O)O (stereo unspecified),-20,3777,4,8,1,2,3.6

# (cont.)
SMILES,PrP UTR inh,Bead autofluor,BJeLR lethal,Sa ugtP lethal,Mtb hypoxia rep,Mtb hypoxia rep growth,RN4220 kill
COc1cc(SC)ccc1C(=O)N1CCN(Cc2ccccc2)CC1,5,4498,5,11,5,9,0.1
CCCN(C(=O)/C=C/c1nc2ccccc2s1)C1CCS(=O)(=O)C1 (stereo unspecified),-25,3601,/,-4,-4,2,-3.5
S=c1[nH]nc(COc2cccc(Cl)c2)n1Cc1ccccc1,-14,4322,9,6,7,6,9.4
CC1CCCCC1NC(=O)COC(=O)Cc1ccc(Cl)cc1 (stereo unspecified),-21,3805,/,9,16,5,8.1
CCCCn1nc(C(=O)Nc2cc(C(F)(F)F)ccc2N2CCOCC2)ccc1=O,-20,7594,/,1,5,4,-1.0
COCCN1C(=O)NC(CCc2ccccc2)C(C(=O)OC)C1C (stereo unspecified),/,/,/,-2,-7,-10,3.0
COc1cccc(C(=O)N2CCSC2=S)c1,-10,3307,7,-16,1,7,-8.5
Cc1cc(NC(=O)CN2C(=O)NC3(CCCCC3)C2=O)ccc1N1CCCC1,-10,5447,/,-2,9,9,0.4
Cc1ccc(C)c(NC(=S)N2CCC(NC(=O)c3cccc(F)c3)CC2)c1,-14,6106,-13,-2,3,-2,4.2
CC(C)CC(=O)Nc1ccc(S(=O)(=O)Nc2nccs2)cc1,-20,3202,-5,2,15,13,3.4
C(CNC1C2CC3CC(C2)CC1C3)CN1CCOCC1 (stereo unspecified),-25,3672,-2,10,6,-7,3.1
Cc1ccc(C)c(CN2CCC(CNC(=O)Nc3ccc(C)c(F)c3)CC2)c1,-24,3995,5,-2,-1,4,-1.3
Cc1ccc(NS(=O)(=O)c2ccc(-c3coc(C)n3)cc2)c(Br)c1,-6,5903,9,-1,0,-4,18
COc1ccccc1N(CC(=O)N/N=C(\C)c1cccc(Br)c1)S(C)(=O)=O,-8,9423,10,/,/,/,/
COc1ccc(C(=O)N/C=C/n2cnc3cc(C(F)(F)F)ccc32)cc1,-5,5156,-6,-2,13,8,-2.6
COc1ccc(Nc2nnc(C)c3ccccc23)cc1,-24,4049,-3,-1,5,1,3.6
